High-throughput results from PubChem BioAssay.
Mtb betalactam: beta-lactam sensitization of Mtb H37Rv. M. tuberculosis H37Rv growth with meropenem, percent inhibition; hits of this screen are not shown here. inhibition, % at 25 µM. 330,000 tested, 0.27% active;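 active = about 74% or more and at least 40 points above the plate without the antibiotic, then above 30% in a dose series; inconclusive = first-round hits that could not be retested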;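 note: growth measured after seven days incubation then overnight dye step; 0% = bacteria only wells and 100% = bacteria with antibiotic; twin plates without the antibiotic show which effects depend on it; some results filed as inactive read as strong as hits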
* hit, by the source's call; ? = inconclusive.

structure	Mtb betalactam
COc1ccccc1CNCC(=O)Nc1cc(S(=O)(=O)N2CCOCC2)ccc1Cl	-2
O=c1[nH]c(=O)n([C@H]2C[C@H](O)[C@@H](CO)O2)cc1Br	-2
O=C(COc1ccc([N+](=O)[O-])cc1)Nc1ccc2c(c1)CCC2	0
O=C(COC(=O)CCC1CCCC1)Nc1ccc(F)cc1Cl	9
Cc1ccc(S(=O)(=O)N2[C@@H](c3ccc(C(C)(C)C)cc3)C(C(=O)O)=CC[C@H]2c2ccc(C(C)C)cc2)cc1	2
Cc1cccc(C)c1NC(=O)Cn1c(=O)c(N2CCCCC2)c(N)n(C)c1=O	-1
CC(C)N=C(N)N=C(N)Nc1ccc(Cl)cc1	-8
Cn1c(C=O)c(C#Cc2ccccc2)c2ccccc21	26
CC1CC(C)CN(C(=O)C2CC(=O)N(c3ccc4c(c3)OCCO4)C2)C1 (centres undefined)	-1
COc1cc2cc(CCOC(=O)N3CCCCC3)oc(=O)c2cc1OC	-1
CC1CCCC(C)N1C(=O)COC(=O)c1cncc(Br)c1 (centres undefined)	-2
Cc1ccc(S(=O)(=O)N2CCCC(C(=O)NCCc3ccc(S(N)(=O)=O)cc3)C2)cc1 (centres undefined)	-5
O=C(Nc1ccc(-n2cnnn2)cc1)c1cccc(S(=O)(=O)N2CCCC2)c1	-1
Cc1ccc2c(c1)-n1c(nc3ccc(C)cc3c1=O)C(Cc1ccc(O)cc1)NC2=O (centres undefined)	-1
COc1cc(OC)cc(C(=O)NNC(=O)CNC(=O)c2cccs2)c1	4
CC(C(=O)NC(=O)NC1CCCCC1)N1CCN(c2ccc(O)cc2)CC1 (centres undefined)	-11
Nc1ccc(N2CCOCC2)c(S(=O)(=O)Nc2ccccc2Cl)c1	-9
CCCN(CC(=O)Nc1ccccc1C)C(=O)c1ccc2c(c1)S(=O)(=O)N=C1CCCCCN12	0
O=C(Cc1ccc(S(=O)(=O)N2CCOCC2)s1)NC1CCCCC1	6
CC1(NC(=O)c2ccccc2)CCN(CCCc2ccccc2)C1=O (centres undefined)	-6
COc1ccc(OC)c(/C=C/C(=O)OCC(=O)N2CCCCC2)c1	7
CC(C)NC(=O)Nc1cccc2c1O[C@H](CN(C)S(=O)(=O)c1cccs1)[C@@H](C)CN([C@H](C)CO)C2=O	3
COc1cccc(-c2sc3ccc(OC)cc3c2C#CCC(C)O)c1 (centres undefined)	84
O=c1[nH]c(=S)[nH]c(O)c1N=Nc1cc(S(=O)(=O)Nc2ccc(Cl)cc2)ccc1Cl	-5
C[C@]12c3[nH]c4ccccc4c3CCN1C(=O)C(CC(=O)NCCN1CCOCC1)C[C@@H]2C(=O)N1CCCCC1 (some centres undefined)	-6
C#CCOCCOCCOCCNc1nc(N2CCN(C(=O)[C@H](CCCCN)n3cc(CN)nn3)CC2)nc(N2CCN(C(=O)[C@H](CCC(=O)O)n3cc(CN)nn3)CC2)n1	-6
CCC1(c2ccccc2)NC(=O)N(CC(=O)NNC(=O)COc2ccc(Cl)cc2C)C1=O (centres undefined)	-3
COC(=O)C1CCN(C(=O)c2cc(-c3ccc(Cl)s3)nc3ccccc23)CC1	26
O=C(NCC(=O)N1CCCCCCC1)c1cccc([N+](=O)[O-])c1	-7
O=C(NCc1ccccc1)c1nc[nH]c1C(=O)N1CCN(c2ccccc2)CC1	5
CCOC(=O)C1(Cc2cccc(Cl)c2)CCCN(C(=O)CCN2CCCC2=O)C1 (centres undefined)	?
CN(CC1CCCN(CCc2ccc(Cl)cc2)C1)C(=O)c1ccc2nc[nH]c2c1 (centres undefined)	-8
Cc1ccc(C23OCCN2CCn2nc4ccccc4c23)cc1 (centres undefined)	-1
COC(=O)C1=C(c2cccc(Cl)c2)C[C@@H]2CC[C@H]1N2C(=O)N1CCCC1	2
COc1ccc(C(CNC(=O)c2cccc(S(=O)(=O)N3CCCC3)c2)N2CCCC2)cc1 (centres undefined)	0
CCOC(=O)C1=C(c2ccccc2)NC(=O)NC1c1cc(OC)c(OC)c(OC)c1 (centres undefined)	7
Cc1nc(N(C)Cc2ccccc2)c2c(C)c(C)sc2n1	-1
CCN(CC(=O)NCc1cccs1)C(=O)/C=C/c1cc(OC)ccc1OC	-3
CCOC(=O)N1CCN(C(=O)c2cc(COc3ccc(F)cc3F)on2)CC1	?
Cc1cccc(Cn2c(N3CCN(C)CC3)nc3c2c(=O)n(C)c(=O)n3C)c1	-5
CCOC(=O)c1ccoc1CN1CCN(S(=O)(=O)c2ccc(C)c(C)c2)CC1	-3
COc1ccc(OC)c(NC(=O)COC(=O)CCS(=O)(=O)c2ccc(Cl)cc2)c1	-4
CCN(CC)c1ccc(/C=N/NC(=O)c2c(-c3ccccc3)noc2C)cc1	3
CC(C)NP(=O)(NC(C)C)OP(=O)(NC(C)C)NC(C)C	3
CCOc1ccccc1NC(=O)COC(=O)CN1C(=O)NC(C)(C)C1=O	-6
Cc1onc(-c2ccccc2)c1C(=O)Nc1ccc(Cl)c(S(=O)(=O)N2CCOCC2)c1	2
CCOc1cc(C(=O)OC(C(=O)NC(=O)NC)c2ccccc2)ccc1OCC(=O)N1CCOCC1 (centres undefined)	-7
COc1ccc(NC(=O)N(C)C[C@H]2Oc3c(NS(=O)(=O)c4cccs4)cccc3C(=O)N([C@H](C)CO)C[C@@H]2C)cc1	-7
CC1(C)C(=O)Nc2ccccc2N1C(=O)COC(=O)c1cccs1	3
CC(NCCCOc1cccc2ccccc12)c1ccccc1 (centres undefined)	91

Further compounds:
structure	Mtb betalactam
C[C@@H]1CN([C@@H](C)CO)C(=O)c2cccc(NC(=O)Nc3ccc4c(c3)OCO4)c2O[C@H]1CN(C)S(=O)(=O)c1cn(C)cn1	-1
CNc1nnc(SCC(=O)N2c3ccccc3NC(=O)CC2C)s1 (centres undefined)	-8
CCCn1nc(C(=O)NC2CCCCCC2)c2ccccc2c1=O	5
COc1ccccc1CCC(=O)Nc1ccc(OC)c(S(=O)(=O)N2CCOCC2)c1	3
Cc1n[nH]c(=O)c2c(NC(=O)COC(=O)c3ncc(Cl)c(Cl)c3Cl)oc(C)c12	-2
CC(OC(=O)Cc1c[nH]c2ccccc12)C(=O)c1ccccc1 (centres undefined)	8
O=C(CCOc1ccccc1)NNC(=O)c1ccccc1	-7
O=C(CCNC(=O)c1ccc(Br)cc1)NCCCN1CCOCC1	-6
Cc1cc(S(=O)(=O)Nc2nc(CN3CCOCC3)nc3sc4c(c23)CCC4)ccc1F	-2
C[C@H](NC(N)=O)C(=O)Nc1ccc(N2CCOCC2)c(S(=O)(=O)Nc2ccc(Cl)cc2)c1	71
Cc1onc(-c2ccccc2)c1C(=O)N(C)CC(=O)Nc1ccc(F)c(F)c1F	-2
Cc1cc(OCC(=O)N2CCC(C(=O)O)(c3ccccc3)CC2)c2c(C)cc(=O)oc2c1	3
Cc1noc(C)c1C(=O)Nc1ccccc1N1CCOCC1	-5
CCN(C[C@H]1N[C@@](C)(C(=O)OC)[C@H]2C(=O)N(C)C(=O)[C@@H]12)C(=O)Nc1ccc(F)cc1	-10
Cc1ccc(S(=O)(=O)N2CCOCC2)cc1C(=O)NCc1ccccn1	4
C[C@H](CO)N1C[C@H](C)[C@@H](CN(C)Cc2ccc(-c3ccccc3)cc2)Oc2c(NC(=O)Nc3ccc(C(F)(F)F)cc3)cccc2C1=O	-10
Cc1ccc(S(=O)(=O)N2CCCCC2)cc1NC(=O)CSc1nc(N)cc(=O)[nH]1	-2
Cc1ccc2c(c1)CCCN2CC(=O)Nc1cccc(S(=O)(=O)N2CCCC2)c1	5
CN(C)CCCNC(=S)N(CCO)Cc1cc2cc3c(cc2[nH]c1=O)OCO3	-6
CC1CCCN(S(=O)(=O)c2ccc(Cl)s2)C1 (centres undefined)	1
CCCCOc1ccc(C(=O)NCC(=O)NCCOc2ccc(C)cc2)cc1	-7
CCOc1ccc2oc(C(=O)NCc3ccccc3CN3CCCC3)c(C)c2c1	21
N#Cc1ccccc1S(=O)(=O)N1CCC(C(=O)NCc2ccccc2CN2CCCC2)CC1	-2
O=C(Nc1ccon1)c1nc[nH]c1C(=O)NCc1ccccc1	18
CC(C)Oc1ccc(C(=O)OCC(=O)NC(=O)NC2CCCC2)cc1	1
O=C(CNC(=O)C1CCCCC1)OCC(=O)c1cccc(Cl)c1	4
Cc1ccc(NC(=O)c2ccc(=O)[nH]c2)cc1S(=O)(=O)N1CCCCCC1	-2
c1ccc(Cn2cc(-c3ccccc3)cn2)cc1	9
c1ccc([C@H]2CN3CCSC3=N2)cc1	-3
CC1(C)CC(=O)C=C(c2cccc3c2sc2ccccc23)C1	10

Taken from above:
Value for CNc1nnc(SCC(=O)N2c3ccccc3NC(=O)CC2C)s1 (centres undefined) in Mtb betalactam: -8
Value for CC1(C)C(=O)Nc2ccccc2N1C(=O)COC(=O)c1cccs1 in Mtb betalactam: 3
Value for CN(C)CCCNC(=S)N(CCO)Cc1cc2cc3c(cc2[nH]c1=O)OCO3 in Mtb betalactam: -6
Value for COC(=O)C1CCN(C(=O)c2cc(-c3ccc(Cl)s3)nc3ccccc23)CC1 in Mtb betalactam: 26

Next entries:
structure	Mtb betalactam
Cc1ccc(S(=O)(=O)N2CCOCC2)cc1C(=O)OCC(=O)N1CCCC1=O	0
COc1cccc(-n2cnnc2SC(C)C(=O)NC2CCCC2)c1 (centres undefined)	-6
Cc1ccc(C(=O)OC(C)C(=O)N(C)C2CCCCC2)cc1S(=O)(=O)N1CCCCC1 (centres undefined)	-10
O=C(CNC(=O)c1ccc(Cl)cc1Cl)OC1CCCCC1=O (centres undefined)	3
COc1ccc2c(c1)OC[C@H]1[C@@H]2N2C(=O)CNC(=O)[C@@]2(C)[C@H]1c1ccccc1	4
Cc1ccc(N(CC(O)CN2CCOCC2)S(=O)(=O)c2ccc([N+](=O)[O-])cc2)cc1 (centres undefined)	-28
COc1ccc(NC(=O)CN(C)C(=O)C2CSC3(C)CCC(=O)N23)cc1 (centres undefined)	-16
COc1ccc(C2(c3ccc(OC)cc3)NC(=O)N(CC(=O)N(C)C3CCC(C)CC3)C2=O)cc1 (centres undefined)	95
C[C@H](CO)N1C[C@H](C)[C@@H](CN(C)S(=O)(=O)c2cccs2)Oc2ccc(NC(=O)Nc3ccc4c(c3)OCO4)cc2C1=O	94
COc1ccc(C)cc1Nc1n[n+](-c2ccccc2)c(-c2c(OC)ccc3ccccc23)s1	100
COC(=O)c1ccc(NC(=O)CNC(=O)c2sc3ccccc3c2Cl)cc1	-4
C=CC[C@H](CC(=O)N(CCO)Cc1ccccc1)C(=O)N[C@H](C)COC(=O)[C@@H](CC=C)CC(=O)OC(C)(C)C	-3
CC(=O)N1CCN(C(=O)CCNS(=O)(=O)c2ccccc2)CC1	-4
COc1ccc(Cl)cc1NCC(=O)Nc1ccc(OC)c(S(=O)(=O)N2CCCCC2)c1	1
O=C(NCC1CCCO1)c1cc(S(=O)(=O)N2CCCCC2)ccc1Cl (centres undefined)	0
C[C@H](CO)N1C[C@H](C)[C@@H](CN(C)C(=O)NC2CCCCC2)Oc2ccc(NS(=O)(=O)c3ccccc3)cc2C1=O	3
O=C(CSc1ccccc1C(=O)O)Nc1ccc2c(c1)OCO2	-6
Cc1ccc(C(C)NC(=O)CSc2ccc(S(=O)(=O)N3CCOCC3)cn2)cc1C (centres undefined)	-2
Cn1nnnc1Sc1ncnc2scc(-c3ccc(-c4ccccc4)cc3)c12	52
CCOC(=O)Cc1csc(SCC(=O)NC2CCS(=O)(=O)C2)n1 (centres undefined)	-4

A second format for part of the listing above:
CC(C(=O)NC(=O)NC1CCCCC1)N1CCN(c2ccc(O)cc2)CC1 (centres undefined)
  Mtb betalactam = -11

Nc1ccc(N2CCOCC2)c(S(=O)(=O)Nc2ccccc2Cl)c1
  Mtb betalactam = -9

CCCN(CC(=O)Nc1ccccc1C)C(=O)c1ccc2c(c1)S(=O)(=O)N=C1CCCCCN12
  Mtb betalactam = 0

O=C(Cc1ccc(S(=O)(=O)N2CCOCC2)s1)NC1CCCCC1
  Mtb betalactam = 6

(list continues)
structure	Mtb betalactam
NS(=O)(=O)c1ccc(CCNC(=O)CCC(=O)c2cccs2)cc1	-3
COc1ccc(N2CCN(C(=O)COC(=O)CCc3ccccc3)CC2)cc1	-7
CSc1ccccc1NC(=O)CN(C)CC(=O)c1[nH]c(C)c(C(C)=O)c1C	2
C=CC[C@@H](CC(=O)N[C@H](CO)Cc1ccccc1)C(=O)N[C@H](COC(=O)[C@@H](CC=C)CC(=O)OC(C)(C)C)Cc1c[nH]c2ccccc12	-4
CCN(C(=O)CN1C(=O)NC(CCSC)C1=O)C1CCS(=O)(=O)C1 (centres undefined)	-3
Cc1cc(C(=O)Nc2ccccc2Cl)c2ccccc2n1	0
COc1ccc(C)cc1NC(=O)c1ccc2c(c1)C(=O)N(Cc1ccncc1)C2=O	-3
CNC[C@@H]1Oc2ccc(NC(=O)Nc3c(C)noc3C)cc2CC(=O)N([C@H](C)CO)C[C@H]1C	2
Cc1cccc(OCC(=O)OCC(=O)N2CCCc3ccccc32)c1C	-1
COc1ccc2c(c1)OC[C@H]1[C@H]2N2C(=O)c3cc(Cl)ccc3NC(=O)[C@@]2(C)[C@H]1c1ccccc1	99
O=C(Cn1cc([N+](=O)[O-])cn1)NCc1ccccc1	-5
CC(Oc1ccc2c(-c3ccccc3)cc(=O)oc2c1)C(=O)NCc1ccccn1 (centres undefined)	-8
CC[C@H]1CN2CCc3cc(OC)c(OC)cc3C2C[C@@H]1C[C@H]1NCCc2cc(OC)c(OC)cc21 (some centres undefined)	37
Nc1ncnc2c1ncn2[C@@H]1O[C@H](CN=C2NS(=O)(=O)c3ccccc32)[C@@H](O)[C@H]1O	-2

Only part of the results is shown; the hit share may differ from the screen's.
